Compound activity (PubChem BioAssay)
NPYLR7 agonist: activates Aedes aegypti NPYLR7 receptor | HEK293T NPYLR7/Galpha15, GCaMP6s calcium fluorescence | activation, % at 10 µM | actives 0.15% (n = 270,000) | AID 1259423; in the data active = activation above about 40%;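 note: 0% = vehicle and 100% = reference agonist at the receptor; some compounds past the cut are filed as inactive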
NPYLR7 agonist max-min: further read-out of NPYLR7 agonist, marked with its call; activation, %; measured here: Max-Min RFU normalised activation; some inactives read as strong as hits;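 span of the calcium signal over five minutes; 0% = vehicle and 100% = native peptide agonist; compound fluorescence can raise it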
* = called active by the depositor; & = joins results of further samples. These rows are one share of the data; count on the stated rates, not on these rows.

SMILES | NPYLR7 agonist | NPYLR7 agonist max-min
Cn1cccc1C(=O)NC(=O)COc1c(Cl)cccc1Cl | 2 | -1
CC(C)(C)c1nn2cnnc2n(/N=C\c2ccccc2I)c1=O | 3 | 0
COc1cccc(-c2nn(CN3CCCC3c3cc(OC)ccc3OC)c(=S)n2C)c1 (stereo unspecified) | 10 | 14
CCc1ccccc1C(=O)N1CCNCC1C(=O)N1CCOCC1 (stereo unspecified) | 10 | 7
COC(=O)[C@@H]1C[C@@H](NC(=O)CCc2cccnc2)CN1C | 0 | -1
CCOC(=O)N1CCN(C2CCCN(C(=O)c3ccc4[nH]ccc4c3)C2)CC1 (stereo unspecified) | 0 | -2
Cc1nc2ccccn2c1C(=O)Nc1ccc2c(c1)C(=O)N1CCCCC1CCO2 (stereo unspecified) | -4 | -7
NC(=O)C(=O)O | 6 | -42
COc1ccccc1-c1cnn(C(C)(C)C(=O)Nc2cnc3ccccc3c2)c1 | 1 | 0
COc1ccccc1OCCNC(=O)Cc1c(C)nc2nc(SC)nn2c1C | 0 | 5
CCOC(=O)c1nn(-c2ccc(C)cc2)c(=O)cc1OS(=O)(=O)c1c(C)noc1C | 10 | 6
CCn1cc(C(CC(=O)NCCc2ccc(Cl)cc2Cl)c2ccc(F)cc2)c2ccccc21 (stereo unspecified) | 3 | 12
CC1CCc2c(sc3ncnc(N4CCOCC4)c23)C1 (stereo unspecified) | 0 | -2
C=CCNCc1nccn1Cc1ccccc1C(F)(F)F | 8 | 9
COc1cccc(CN2CCN(Cc3cnc(N(C)C)s3)CC2=O)c1 | 3 | 4
O=C(NC1CCS(=O)(=O)C1)c1c2c(nc3ccccc13)/C(=C\c1ccccc1)CC2 (stereo unspecified) | 2 | 0
Cc1nnc(SCCCCSc2nnc(C)n2N)n1N | 0 | -6
CC(C)Nc1nnc(Sc2ncnc3c2cnn3C)s1 | -1 | 2
Cc1c(C(C)NC(=O)CSCC(N)=O)oc2ccccc12 (stereo unspecified) | 6 | 6
Cc1ccc(C(NC(=O)c2cc(C)oc2C)C2CC2)cc1 (stereo unspecified) | 5 | 1
Cc1cc(C)n2nc(C(=O)Nc3cccn(C)c3=O)nc2n1 | 5 | 3
Cc1ccsc1CN(Cc1ccc2c(c1)OCO2)C(=O)CN(CCN1CCOCC1)C(=O)Nc1ccccc1 | -6 | -11
COc1nc(N/N=C/c2ccccc2Cl)nc(N2CCOCC2)n1 | 2 | -8
Cc1ccccc1CN1CCC(CN(Cc2cccnc2)C(=O)c2ccccc2F)CC1 | 6 | 1
Cc1ccc(OCCCN(C)C(=O)C2CCNCC2)cc1C | 2 | 3
CC1(NC(=O)c2cnn(-c3ccccc3)c2)CCS(=O)(=O)C1 (stereo unspecified) | 11 | 8
CN(C)C1CCCN(C(=O)c2ccc(CN3CCCC3)o2)CC1 (stereo unspecified) | 3 | -2
O=C(NC(C(=O)N1CCOCC1)C1CCN(C(=O)c2ccc(Cl)cc2)CC1)c1ccccc1 (stereo unspecified) | -2 | 0
CN(C)CCN(C)c1cc(-c2cccc(F)c2)nc2ccnn12 | -8 | -12
COC(=O)C1=C(C)N(C2CC2)C(=O)NC1c1ccc(OC(F)F)cc1 (stereo unspecified) | 10 | 6
Cc1ccccc1Cc1nnc(CSc2n[nH]c(=O)n2C)o1 | 0&-3 | -2&-6
O=C(Cc1ccc2c(c1)OCCO2)N1CCN(c2ccc(C(F)(F)F)cn2)CC1 | 5 | 1
COc1ccc(-c2cc(C(=O)NCCN3CCCC3)n(-c3cccc([N+](=O)[O-])c3)n2)cc1 | 19 | 23
CCN(c1ccccc1)S(=O)(=O)c1ccc(C(=O)Nc2sccc2C(N)=O)cc1 | 2 | -1
COc1ccc2[nH]c3c(c2c1)CCN(C(=O)c1c(-c2c(F)cccc2Cl)noc1C)C3c1ccccc1OC (stereo unspecified) | 14 | -4
COc1ccc(OC)c(Cc2nnc(CCC(=O)NC(C)c3nccs3)o2)c1 (stereo unspecified) | -6 | -7
O=C(NCC1CCCO1)c1ccc(CSc2ccc3ccccc3n2)cc1 (stereo unspecified) | -7 | -18
Cc1ccc2[nH]c3c(cc(O)c4c(=O)c5ccccc5c(=O)c43)[se]c2c1 | -5 | -12
Cc1nc2ncccn2c1C(=O)NCc1ccccc1-n1ccnc1 | 0 | -2
CC1(C(=O)NS(=O)(=O)c2cccc(F)c2)CCN1C(=O)c1cccc2ccccc12 (stereo unspecified) | 3 | 4

Not a retest: an excerpt of the list.
SMILES | NPYLR7 agonist | NPYLR7 agonist max-min
Cc1nnc(SCCCCSc2nnc(C)n2N)n1N | 0 | -6
CC(C)Nc1nnc(Sc2ncnc3c2cnn3C)s1 | -1 | 2
Cc1c(C(C)NC(=O)CSCC(N)=O)oc2ccccc12 (stereo unspecified) | 6 | 6
Cc1ccc(C(NC(=O)c2cc(C)oc2C)C2CC2)cc1 (stereo unspecified) | 5 | 1
Cc1cc(C)n2nc(C(=O)Nc3cccn(C)c3=O)nc2n1 | 5 | 3
Cc1ccsc1CN(Cc1ccc2c(c1)OCO2)C(=O)CN(CCN1CCOCC1)C(=O)Nc1ccccc1 | -6 | -11
COc1nc(N/N=C/c2ccccc2Cl)nc(N2CCOCC2)n1 | 2 | -8
Cc1ccccc1CN1CCC(CN(Cc2cccnc2)C(=O)c2ccccc2F)CC1 | 6 | 1
Cc1ccc(OCCCN(C)C(=O)C2CCNCC2)cc1C | 2 | 3
CC1(NC(=O)c2cnn(-c3ccccc3)c2)CCS(=O)(=O)C1 (stereo unspecified) | 11 | 8
CN(C)C1CCCN(C(=O)c2ccc(CN3CCCC3)o2)CC1 (stereo unspecified) | 3 | -2
O=C(NC(C(=O)N1CCOCC1)C1CCN(C(=O)c2ccc(Cl)cc2)CC1)c1ccccc1 (stereo unspecified) | -2 | 0
CN(C)CCN(C)c1cc(-c2cccc(F)c2)nc2ccnn12 | -8 | -12
COC(=O)C1=C(C)N(C2CC2)C(=O)NC1c1ccc(OC(F)F)cc1 (stereo unspecified) | 10 | 6
Cc1ccccc1Cc1nnc(CSc2n[nH]c(=O)n2C)o1 | 0&-3 | -2&-6
O=C(Cc1ccc2c(c1)OCCO2)N1CCN(c2ccc(C(F)(F)F)cn2)CC1 | 5 | 1
COc1ccc(-c2cc(C(=O)NCCN3CCCC3)n(-c3cccc([N+](=O)[O-])c3)n2)cc1 | 19 | 23
CCN(c1ccccc1)S(=O)(=O)c1ccc(C(=O)Nc2sccc2C(N)=O)cc1 | 2 | -1
COc1ccc2[nH]c3c(c2c1)CCN(C(=O)c1c(-c2c(F)cccc2Cl)noc1C)C3c1ccccc1OC (stereo unspecified) | 14 | -4
COc1ccc(OC)c(Cc2nnc(CCC(=O)NC(C)c3nccs3)o2)c1 (stereo unspecified) | -6 | -7
O=C(NCC1CCCO1)c1ccc(CSc2ccc3ccccc3n2)cc1 (stereo unspecified) | -7 | -18
Cc1ccc2[nH]c3c(cc(O)c4c(=O)c5ccccc5c(=O)c43)[se]c2c1 | -5 | -12
Cc1nc2ncccn2c1C(=O)NCc1ccccc1-n1ccnc1 | 0 | -2

Entries of single compounds from above:
O=C(Cc1ccc2c(c1)OCCO2)N1CCN(c2ccc(C(F)(F)F)cn2)CC1 reads NPYLR7 agonist = 5; NPYLR7 agonist max-min = 1
COc1ccc(OC)c(Cc2nnc(CCC(=O)NC(C)c3nccs3)o2)c1 (stereo unspecified) reads NPYLR7 agonist = -6; NPYLR7 agonist max-min = -7

(next part)
SMILES | NPYLR7 agonist | NPYLR7 agonist max-min
COCCn1cc(C(=O)N2CCN(C(=O)C3CC3)CC2)c2nn(-c3ccccc3)c(=O)c-2c1 | 1 | 0
COc1ccc(C2c3ccsc3CCN2CC(=O)N2CCN(C(=O)NC3CCCCC3)C(C)C2)cc1 (stereo unspecified) | -9 | -11
Cc1noc(C)c1C(=O)N1CCC1(C)C(=O)NS(=O)(=O)c1ccc(C#N)cc1 (stereo unspecified) | 2 | 1
CC1(C(=O)NS(=O)(=O)c2ccccc2Cl)CCN1C(=O)CC(c1ccccc1)c1ccccc1 (stereo unspecified) | 16 | 16
Cc1c(Cl)ccc2c(=O)c(CN3CCOCC3)c[nH]c12 | -2 | -3
Cc1oc(-c2ccccc2NC(=O)C2CCC2)nc1CNC(=O)c1cc(C2CC2)nc2ccccc12 | -6 | -9
CC(C)N1CCCC(C)(C(=O)Nc2ccc(F)cc2)C1 (stereo unspecified) | 0 | -2
CCC(NC(=O)c1ccccc1-c1ccccc1)c1ccccn1 (stereo unspecified) | 1 | 0
COc1ccccc1CNc1nc(-c2cccnc2)nc2c1CNC2 | 8 | 5
Nc1cc(N2CCCC(c3[nH]ncc3-c3ccc(F)cc3)C2)ncn1 (stereo unspecified) | 1 | 10
CCC1CN(CC(O)CN2CCC(C)CC2)CCN1CCOC (stereo unspecified) | -12 | -10
Oc1oc(-c2cccc3ccccc23)nc1C=Nc1ccc2ccccc2c1 | 0 | -6
CCOC1CC(N(C)c2nccc(-n3cccn3)n2)C1(CC)CC (stereo unspecified) | 3 | 1
Cc1ccc(S(=O)(=O)NC(=O)Nc2nc3ccc([N+](=O)[O-])cc3s2)cc1 | 2 | 6
CCOCCCN(CC(=O)N(Cc1ccc2c(c1)OCO2)Cc1ccc(C)o1)C(=O)c1cccc(Br)c1 | 8 | 8
O=C(N=Nc1c(O)n(CN2CCOCC2)c2ccccc12)c1cccnc1 | 5 | 3
C=CCn1c(N2CCCC(C)C2)nc2c1c(=O)[nH]c(=O)n2C (stereo unspecified) | -5 | 6
CCN(C(=O)CN(c1ccncc1)S(=O)(=O)c1ccccc1)C1=CCCC1 | 3 | 0
CCCCSc1nc2c(c(=O)[nH]1)C(c1cccs1)C(C(=O)OCC)C(C)=N2 (stereo unspecified) | -3 | -5
COc1ccc(Br)cc1CS(=O)(=O)c1nccn1C | 15 | 14
CCCCCCc1ccc(C(=O)Nc2ccc(N3CCN(c4ccccc4OC)CC3)c(C(=O)N3CCCC3)c2)cc1 | 1 | 12
C[C@@H]1CN(C2(C(=O)N(C)Cc3cccnc3)Cc3ccccc3C2)C[C@H](C)O1 | 3 | 2
Cn1c(N)c(C(=O)Cn2cc[n+](C)c2)c(=O)n(C)c1=O | -1 | -3
COCCNCC(=O)N1CC(=O)N(c2ccc(F)cc2)C1 | -3 | -13
Cc1ccc(C)c(NC(=O)c2cccc(CN3C(=O)CSC3=O)c2)c1 | 0 | -3
Cc1ccc(Cn2c(=O)c3c(nc4n(C)c(C)c(C)n34)n(C)c2=O)cc1 | 0 | 3
CCCCC(=O)N(C)c1c(CC)nc2c(OCc3cccc(Cl)c3)cccn12 | 1 | 1
O=C1CCC(C(=O)N(Cc2ccc(F)cc2)CC2CCCO2)=NN1 (stereo unspecified) | -1 | -6
CCC1CC(C)CN1C(=O)CC1(CS(C)(=O)=O)CC1 (stereo unspecified) | 0 | -2
O=C(Cn1c(=O)cnc2ccccc21)Nc1cc2c(cc1Cl)OCO2 | 3 | 3
NC(=O)c1cccc(CC2CCN(C(=O)Cn3nc4ccccc4n3)C2)c1 (stereo unspecified) | -7 | -7
O=C(NC1CCCC[C@H]1N(Cc1ccc(Cl)cc1)C(=O)c1ccccc1)C1CCCN(C(=O)c2cccc(F)c2)C1 (stereo partly specified) | 27 | 21
COC1CCCC(C(=O)NCC(=O)N2CCC3(CC2)Nc2ccccc2S(=O)(=O)N3)C1 (stereo unspecified) | 1 | 27
CCn1c(Cn2cnnc2S(C)=O)nc2cc(F)ccc21 (stereo unspecified) | 9 | 6
CC(NC(=O)c1ccc2c(c1)OCCCO2)c1ccc(Cl)s1 (stereo unspecified) | -4 | -4
COc1cccc(C(=O)Nc2c(-c3ccc(C)cc3)nc3cc(C)ccn23)c1 | 9 | 8
CC(C)CCn1c(=O)c2c(nc3n2CC(C)CN3c2ccc(Br)cc2)n(C)c1=O (stereo unspecified) | 5 | 3
O=C(NCCN1CCCCC1)C(C1CCCC1)N1CCN(C(=O)c2ccc(C(F)(F)F)cc2)CC1 (stereo unspecified) | -6 | 1
CC(C)N1CCC(C(=O)NC(Cn2ccnc2)c2ccccc2)CC1 (stereo unspecified) | 16 | 10
CCOC(=O)CC1COCCN1C(=O)c1cc(C2CC2)[nH]n1 (stereo unspecified) | 9 | 4
CC(Cc1ccc2c(c1)OCO2)CN1CCn2c(nnc2C(=O)NC(C)C)C1 (stereo unspecified) | 5 | 0
CC(C)c1cc(C2CCN(C(=O)CN3CCOC3=O)CC2)[nH]n1 | 16 | 10
CCCC(=O)C1=C(c2ccc(Cl)cc2)N(C(=O)CCC)n2c(C)nnc2S1 | 7 | 5
CN(C(=O)c1cnn(-c2cccc(Cl)c2)c1C(F)(F)F)C1CCS(=O)(=O)C1 (stereo unspecified) | 6 | 4
CCCCS(=O)(=O)NNC(=O)C1C2CCCCC21 (stereo unspecified) | -10 | -17
COCCn1c(C(C)NC(=O)Nc2cccc(F)c2)nc2ccccc2c1=O (stereo unspecified) | 7 | 15
Cc1cc(=O)[nH]c(-n2nc(C)c(CCC(=O)NCc3cccs3)c2C)n1 | 4 | 3
CC(C)c1cccc(C(C)C)c1NC(=O)NC(C(=O)Nc1nnc(-c2ccccc2)s1)C(C)C (stereo unspecified) | 1 | -5
O=C(NCc1cccnc1-n1cnc2ccccc21)c1ccsc1 | -7 | -10
COc1ccc(-c2ccc(=O)n(CCNS(=O)(=O)c3cc(C)ccc3C)n2)cc1 | 2 | 2

(next part)
SMILES | NPYLR7 agonist | NPYLR7 agonist max-min
CC1CC(NC(=O)c2cccc(C(=O)N3CCCC3)n2)CCN1Cc1ccccc1 (stereo unspecified) | 9 | 7
CCc1c(C)nc2c(-c3ccc(Cl)cc3)c[nH]n2c1=O | -4 | -3
O=c1c(N=Nc2cccc3ccccc23)c(-c2ccccc2)[nH]n1-c1nc(-c2ccccc2)cs1 | -4 | -9
CC(=O)N1CCN(C(=O)C2(C)CCN2Cc2csc3ccccc23)CC1 (stereo unspecified) | -2 | -6
CN(CC1COc2ccccc2O1)c1ccc(S(N)(=O)=O)cn1 (stereo unspecified) | 0 | 2
CC(C)CN(CC(C)C)C(=O)COC(=O)c1cc2c(s1)-c1ccccc1OC2 | 10 | 6
O=C1ON=C(c2ccccc2)/C1=C/C=C/c1ccccc1 | 0 | 27
O=C(Nc1nnc(SCc2ccc(Cl)c(Cl)c2)s1)C1CC1 | -3 | 6
Cn1ccnc1CCNS(=O)(=O)c1ccc(Br)cc1Cl | 22 | 23
Cc1ccc(C=NNC(=S)NC2CCCCC2)o1 | -8 | -16
